From PubChem BioAssay
Insulin prom inh = inhibitors of insulin promoter-driven GFP, primary screen, imaging, TRM-6 cells (human fetal islet line), eGFP reporter, cell count | inhibition, % at 2 µM | hit rate 0.9% among 130,000 | reporter expression induced with tamoxifen;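 active = inhibition above the mean plus 3 SD, with well images judged a real hit on visual review, cut at about 60% in these data, passing the limit was not always enough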
RGS16-Gao = modulators of RGS16 binding to Galphao, primary screen, biochemical, human proteins, multiplexed bead flow cytometry | hit rate 0.38% among 220,000 | Regulator of G-protein signaling 16 (Homo sapiens) + Guanine nucleotide-binding protein … | binding response (% of control), % at 10 µM | bead-based flow cytometry RGS16-Galphao binding, fluorescence; actives lie on both sides;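 active = below 25% or above 175%, edge rows of some plates excepted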;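 note: Galphao activated by GDP with aluminum fluoride before binding; 100% = wells without compound and 0% = beads without RGS; some results beyond the cut were filed as inactive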
GALR2 ag = GALR2 receptor agonists, primary screen, cell-based | hit rate 0.48% among 140,000 | Galanin receptor type 2 (Homo sapiens), O43603 | GALR2-expressing cells, agonist activation read-out | activation, %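 (tested at 5 µM)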;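 active = above mean plus 3 SD of all compounds, about 5% in these data, not always enough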;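 note: 0% = vehicle buffer wells and 100% = reference agonist at full effect; tested in CHO reporter cells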
HSV replic up = enhancers of HSV replication in host cells, fold increase, host cell viability; HSV replication augmentation in cells; maximum fold increase; hit rate 0.005% among 220,000;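 active = peak rise of 1.5-fold or more in the series; tested in PC3 cells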;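 note: first round at 10 µM; read as green reporter fluorescence; hits show the peak of a series up to 25 µM; 1 = signal of infected wells without compound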
PKD1 inh = inhibitors of human PKD1 kinase, biochemical, fluorescence polarization | inhibition, %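 (about 10 µM by stock and volumes)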 | PKD1 kinase fluorescence polarization assay | AID 797, 2007 | hit rate 0.056% among 200,000;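 active = inhibition of 50% or more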;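 note: controls were vehicle for no effect and a reference inhibitor for full effect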
Target sequence (Q15139 whole entry, looked up): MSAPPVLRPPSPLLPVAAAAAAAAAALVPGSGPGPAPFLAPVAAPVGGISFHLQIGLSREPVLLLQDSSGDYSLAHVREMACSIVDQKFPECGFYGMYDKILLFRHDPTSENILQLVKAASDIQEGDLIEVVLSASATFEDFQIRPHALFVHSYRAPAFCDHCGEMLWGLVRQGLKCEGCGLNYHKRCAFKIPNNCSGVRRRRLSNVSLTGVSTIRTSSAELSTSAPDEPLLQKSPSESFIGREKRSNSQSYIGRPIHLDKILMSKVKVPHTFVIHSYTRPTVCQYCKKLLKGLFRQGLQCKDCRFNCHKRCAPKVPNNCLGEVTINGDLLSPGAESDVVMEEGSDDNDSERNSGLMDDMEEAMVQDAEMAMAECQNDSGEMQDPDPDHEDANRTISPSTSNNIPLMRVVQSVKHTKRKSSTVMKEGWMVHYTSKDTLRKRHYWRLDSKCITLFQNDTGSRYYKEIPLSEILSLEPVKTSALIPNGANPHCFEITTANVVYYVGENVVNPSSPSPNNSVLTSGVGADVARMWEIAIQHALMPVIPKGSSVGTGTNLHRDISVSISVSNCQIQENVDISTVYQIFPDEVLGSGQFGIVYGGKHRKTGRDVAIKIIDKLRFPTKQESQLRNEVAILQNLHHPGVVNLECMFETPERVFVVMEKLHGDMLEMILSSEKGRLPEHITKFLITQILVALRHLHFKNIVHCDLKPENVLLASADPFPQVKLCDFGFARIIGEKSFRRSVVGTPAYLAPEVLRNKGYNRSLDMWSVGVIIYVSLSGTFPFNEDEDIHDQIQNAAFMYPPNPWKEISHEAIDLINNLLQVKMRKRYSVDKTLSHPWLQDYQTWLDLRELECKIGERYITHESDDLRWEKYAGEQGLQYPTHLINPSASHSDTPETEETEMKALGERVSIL
Insulin prom inh cell count = second read-out of Insulin prom inh, no call of its own (marks repeat the call); normalized cell count, %; measured here: cell count, toxicity; reference of the scale not given here;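 cells exposed to compound for 48 h; stained nuclei by imaging scaled within each plate; lower means fewer cells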
HSV replic up primary fold = also measured in HSV replic up; calls as there; fold increase; compound at 10 µM; measured here: primary screen fold increase 10 uM; tested in PC3 cells;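 GFP signal in the first replicate; 1 = infected wells without compound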
An asterisk follows results filed as active; i = inactive; . = no result given. An unsorted share of the library. About 1.3% of those tested had a hit in this group.

cpd | molecule | Insulin prom inh | Insulin prom inh cell count | RGS16-Gao | GALR2 ag | HSV replic up | HSV replic up primary fold | PKD1 inh
1 | O=C(NC1CCCCC1)C1CCCN1C(=O)NCc1ccccc1 (configuration not stated) | 11 | 76 | 99 | -0.5 | i | 0.98 | 4
2 | COc1ccc(N2CCN(C(=O)CCNC(=O)c3ccccc3)CC2)cc1 | 5 | 86 | 96 | . | i | 0.98 | -3
3 | O=C(NC1CCCCCCC1)c1ccccc1-c1ccccc1 | -52 | 133 | 69 | -0.2 | i | 1.1 | -6
4 | CC(NS(=O)(=O)c1ccc(OCC(=O)N2CCOCC2)c(Cl)c1)c1ccccc1 (configuration not stated) | 33 | 108 | 100 | -1.7 | i | 0.98 | 2
5 | COC(=O)CCC(=O)Nc1cc(S(=O)(=O)Nc2ccc(Cl)cc2)ccc1N1CCOCC1 | -103 | 32 | 81 | -0.8 | i | 1 | -3
6 | CCOc1cc(-n2cnnn2)c(OCC)cc1NC(=O)c1cc2ccc(N(CC)CC)cc2oc1=O | -9 | 100 | . | 0.9 | . | . | 2
7 | Cc1cc(C)n(-c2nc(NCC3CCCO3)c3c4c(sc3n2)COC(C)(C)C4)n1 (configuration not stated) | -13 | 151 | 100 | 0.2 | i | 0.87 | 4
8 | COC(=O)c1ccc(-c2noc(CN3CCCC(CNC(C)=O)C3)n2)cc1 (configuration not stated) | . | . | 102 | . | i | 1 | -4
9 | CCNC(=O)COC(=O)CCC(=O)c1cccs1 | 6 | 115 | 105 | -2.3 | i | 1 | -2
10 | CC1CCN(CC(=O)Nc2ccccc2C#N)CC1 | -361 | 61 | 213 | -0.6 | i | 0.92 | -6
11 | CCc1nc2ccccc2c(=O)n1NC(=O)c1c(O)c2ccccc2n(CC)c1=O | . | . | 101 | . | i | 1 | -1
12 | C=CCNC(=S)N1CCN(C2CCCCC2)CC1 | . | . | 89 | . | i | 0.88 | .
13 | CC(=C/c1ccco1)/C=N/NC(=O)CSc1nnc(SCc2ccc(C)cc2)s1 | . | . | 105 | -0.1 | . | . | -3
14 | O=C(NCCCO)C12CC3CC(CC(C3)C1)C2 | 67 | 106 | . | -1.7 | i | 1 | -2
15 | COC(=O)c1[nH]c2ccccc2c1NS(=O)(=O)c1ccc(OC)cc1OC | 72 | 85 | 120 | -3.9 | i | 1 | -5
16 | CCN(CC)C(=O)c1ccc(/C=C/c2c[nH]c3ccccc23)[n+](C)c1 | -17 | 31 | 90 | -1.1 | i | 1.3 | -8
17 | Cc1cc(NCc2ccco2)nc2cc(O)ccc12 | . | . | 103 | -0.2 | i | 0.8 | 6
18 | CCn1ncc(Br)c1C(=O)Nc1ccccc1C(=O)OC | -9 | 82 | . | -1.8 | i | 0.89 | -7
19 | CCOC(=O)C(=O)Nc1ncc(Cl)s1 | . | . | 103 | . | i | 1.1 | .
20 | CCCCCCCN(C(=O)CCl)c1ccccc1C | . | . | 69 | 0.0 | i | 1.3 | 0

Given with two lines to a compound: six of the compounds above
Results follow in this order: Insulin prom inh, Insulin prom inh cell count, RGS16-Gao, GALR2 ag, HSV replic up, HSV replic up primary fold, PKD1 inh
6. CCOc1cc(-n2cnnn2)c(OCC)cc1NC(=O)c1cc2ccc(N(CC)CC)cc2oc1=O
  -9, 100, ., 0.9, ., ., 2
7. Cc1cc(C)n(-c2nc(NCC3CCCO3)c3c4c(sc3n2)COC(C)(C)C4)n1 (configuration not stated)
  -13, 151, 100, 0.2, i, 0.87, 4
8. COC(=O)c1ccc(-c2noc(CN3CCCC(CNC(C)=O)C3)n2)cc1 (configuration not stated)
  ., ., 102, ., i, 1, -4
9. CCNC(=O)COC(=O)CCC(=O)c1cccs1
  6, 115, 105, -2.3, i, 1, -2
10. CC1CCN(CC(=O)Nc2ccccc2C#N)CC1
  -361, 61, 213, -0.6, i, 0.92, -6
11. CCc1nc2ccccc2c(=O)n1NC(=O)c1c(O)c2ccccc2n(CC)c1=O
  ., ., 101, ., i, 1, -1

Further records follow.
cpd | molecule | Insulin prom inh | Insulin prom inh cell count | RGS16-Gao | GALR2 ag | HSV replic up | HSV replic up primary fold | PKD1 inh
21 | Cc1ccnc(NCn2nnc3ccccc32)c1 | -7 | 128 | 98 | -1.1 | i | 0.91 | 1
22 | O=C(N/N=C/c1ccc([N+](=O)[O-])o1)C(=O)Nc1ccc(C(=O)O)cc1 | . | . | 99 | . | i | 1 | .
23 | COc1ccc(CCNCc2csc3nc4ccccc4n23)cc1OC | . | . | 103 | -1.1 | i | 1 | 5
24 | COC(=O)c1ccc(NC(=O)CSc2nc(=O)cc(N)n2-c2ccccc2)cc1 | . | . | 100 | . | i | 0.99 | -6
25 | Cc1c(NC(=O)c2ccc(N(Cc3ccccc3)S(C)(=O)=O)cc2)c(=O)n(-c2ccccc2)n1C | . | . | 103 | . | i | 0.92 | -7
26 | O=C(NCc1ccc2c(c1)OCO2)c1ccc(C2SCC(=O)N2Cc2ccco2)cc1 (configuration not stated) | 22 | 116 | 93 | -3.0 | i | 0.92 | 4
27 | O=C(c1n[nH]c2c1CCCC2)n1ccnc1 | . | . | 118 | 0.0 | i | 1.1 | -3
28 | CCOC(=O)c1cnc2ccc(OC)cc2c1NCCc1ccc(OC)c(OC)c1 | 43 | 117 | 106 | 0.3 | i | 0.72 | 2
29 | CC(C)C(=O)NCc1cc(-c2ccc(Cl)cc2)no1 | . | . | 98 | . | i | 1.1 | 0
30 | COc1cc(/C=C(/C#N)c2ccccc2)ccc1Oc1ccc([N+](=O)[O-])cn1 | . | . | 109 | -3.0 | i | 1.1 | 4
31 | C/C(=N\NC(=O)COc1ccc(C)cc1[N+](=O)[O-])c1cccs1 | 9 | 120 | 110 | . | i | 0.78 | -6
32 | CC(C)Oc1ccc(CC2CCC(=O)N(C)C2=O)cc1 (configuration not stated) | 14 | 64 | 129 | 0.1 | i | 0.92 | -4
33 | Cc1ccc(C(=O)NCc2ccccn2)c(Cl)c1 | 11 | 57 | 100 | 0.0 | i | 1.1 | -2
34 | CC(=O)Nc1nc(=S)ss1 | . | . | 86 | -0.9 | i | 0.87 | -9
35 | S=C(NCCc1ccccn1)Nc1ccccc1Cl | -24 | 90 | 104 | . | i | 0.87 | 0
36 | O=C(COc1ccc(Br)cc1)Nc1ccncc1 | 49 | 111 | 104 | -2.0 | i | 0.97 | -3
37 | COC(=O)c1ccccc1NC(=O)CSc1nnc(-c2ccncc2)o1 | . | . | 47 | -1.0 | i | 1.1 | 2
38 | Fc1ccccc1COc1ccc(Br)cc1CNCc1ccncc1 | -22 | 111 | 100 | -1.8 | i | 1.1 | -11
39 | C=CCOC(=O)C1=C[C@@H](c2cn(C(C)=O)c3ccccc23)C[C@@H](OCCCCO)O1 | . | . | 103 | . | i | 1.1 | 8
40 | N#CCCn1cc(C(N)=O)c(-c2cccs2)n1 | . | . | 99 | . | i | 1 | 0
41 | O=C1C2CC(O)CN2C(=S)N1Cc1ccccc1 (configuration not stated) | . | . | 98 | . | i | 0.88 | .
42 | Cc1ccc(NS(=O)(=O)c2cccc(C(=O)N/N=C/c3ccc4c(c3)OCCO4)c2)c(C)c1 | 23 | 155 | 99 | -1.5 | i | 0.95 | 2
43 | COc1ccc(-c2nn(-c3ccccc3)cc2/C=N/N=C(N)N)cc1OC | 11 | 129 | 109 | 0.1 | i | 0.5 | 10
44 | O=C(CN1C(=O)COc2ccccc21)N1CCc2ccccc21 | 46 | 123 | 102 | -2.3 | i | 0.97 | 4
45 | CCOc1cc(CNCCc2ccc(S(N)(=O)=O)cc2)ccc1OCC(=O)NC(C)(C)C | -17 | 116 | 92 | -1.1 | i | 0.77 | 3
46 | CCOC(=O)C(=CNc1ccc(Oc2cccnc2)nc1)C(=O)OCC | . | . | 104 | . | i | 1.1 | .
47 | Cc1cccc(Nc2ccccc2C(=O)O)c1C | -5 | 78 | 67 | -0.6 | i | 0.96 | -5
48 | COc1cc(/C=N/NS(=O)(=O)c2ccc3ccccc3c2)ccc1OCCN1CCOCC1 | 20 | 136 | 102 | 0.9 | i | 0.94 | -8
49 | Cc1ccc(C(Sc2ccccc2)C(Cn2cncn2)C(=O)c2ccccc2)cc1 (configuration not stated) | 29 | 98 | 95 | -0.5 | i | 0.74 | 1
50 | Nc1c(C(=O)NCc2ccco2)sc2nc(N3CCOCC3)c3c(c12)CCCC3 | -29 | 56 | 105 | 0.8 | i | 0.88 | 0
51 | O=C(Nc1nnc(CCOCCOCCc2nnc(NC(=O)c3ccco3)s2)s1)c1ccco1 | 38 | 99 | 105 | -0.2 | i | 0.91 | -4
52 | O=c1nc(N2CCCCCC2)nc(N2CCCCCC2)[nH]1 | . | . | 99 | -0.3 | i | 0.96 | -17
53 | CCC1(C)COC(C)(CC(=O)NNC(=O)Nc2ccccc2)OC1 (configuration not stated) | . | . | 114 | . | i | 0.97 | -4
54 | Cc1ccc(N(c2ncnc(N)c2[N+](=O)[O-])C2CCCCC2)cc1 | 3 | 63 | 100 | -1.0 | i | 0.99 | -16
55 | CC(=O)Nc1ccc(C(=O)OCC(=O)c2ccc(F)cc2)cc1 | 45 | 80 | 69 | -1.2 | i | 1 | 2
56 | Cc1nc2c(-c3ccccc3)c(C)nn2c(N)c1-c1ccccc1 | 62 | 143 | 110 | -3.0 | i | 0.94 | 2
57 | Cn1sc(=O)c2cc(S(=O)(=O)NC3CC3)ccc21 | . | . | 78 | . | i | 1.2 | .
58 | CC1(C)CC(NC(=O)c2sc3cc(Cl)ccc3c2Cl)CC(C)(C)N1 | . | . | 99 | . | i | 0.95 | -4
59 | Cc1nn(-c2ccccc2)c(Cl)c1/C=N/Nc1nnc(C)c(=O)[nH]1 | 38 | 115 | 102 | . | i | 0.91 | -3
60 | COC(=O)c1ccc(C(=S)N2CCCCC2)cc1 | . | . | 97 | . | i | 0.83 | -6

Looked up above.
no. 41 @ HSV replic up primary fold: 0.88
no. 60 @ RGS16-Gao: 97
no. 59 @ RGS16-Gao: 102
no. 44 @ HSV replic up primary fold: 0.97
no. 48 @ RGS16-Gao: 102
no. 47 @ Insulin prom inh cell count: 78

Some of these compounds in order of the GALR2 ag value, rising:
No.	compound	GALR2 ag
3	O=C(NC1CCCCCCC1)c1ccccc1-c1ccccc1	-0.2
27	O=C(c1n[nH]c2c1CCCC2)n1ccnc1	0.0
43	COc1ccc(-c2nn(-c3ccccc3)cc2/C=N/N=C(N)N)cc1OC	0.1

(further entries)
cpd | molecule | Insulin prom inh | Insulin prom inh cell count | RGS16-Gao | GALR2 ag | HSV replic up | HSV replic up primary fold | PKD1 inh
61 | COc1ccc(CC(=O)OCC(=O)Nc2ccc(Cl)c(S(=O)(=O)N(C)C)c2)cc1 | . | . | 97 | . | i | 0.87 | -5
62 | Cc1nc2c(Cl)c(C)nn2c2c1CCC2 | . | . | 100 | . | i | 0.92 | 6
63 | C=CCNC(=O)c1ccccc1NC(=O)c1ccccc1SC | 5 | 133 | 104 | . | i | 0.8 | 0
64 | CC1=CC(C)(C)N2C(=O)C3(C(C#N)=C(N)Oc4cc(C)oc(=O)c43)c3cc(C)cc1c32 (configuration not stated) | -30 | 61 | . | -2.3 | i | 0.94 | 1
65 | O=C(Nc1ccc(Cl)cc1)N1CC=CCC1 | 63* | 122* | 103 | -0.5 | i | 0.95 | -5
66 | COCC(=O)N(Cc1ccco1)c1nnc(C2CCOC2)s1 (configuration not stated) | 17 | 101 | 117 | -1.8 | i | 0.94 | -6
67 | CCNC(=S)N/N=C(\C)c1cccc(C(F)(F)F)c1 | -15 | 124 | 99 | . | i | 0.92 | -4
68 | COc1ccc(OCc2nnc3n2N=C(c2ccc(Br)cc2)CS3)cc1 | . | . | 100 | -2.1 | i | 1 | 12
69 | O=C(NC1=NCCS1)C12CC3CC(CC(C3)C1)C2 | 53 | 96 | 103 | . | i | 0.84 | -2
70 | COc1ccccc1N(C)S(=O)(=O)c1ccc(C(=O)NCC(C)C)cc1 | 19 | 38 | 105 | -2.9 | i | 0.88 | -5
71 | COc1ccc(CCNC(=O)C/C(C)=N/NC(=O)Cc2cccc3ccccc23)cc1OC | . | . | 101 | . | i | 0.93 | .
72 | O=C(CCN1C(=O)c2ccncc2C1=O)Nc1cc(F)ccc1F | . | . | 115 | . | i | 1.1 | -1
